Assay outcomes as filed in PubChem BioAssay.
Vif A3G: inhibitors of Vif binding to APOBEC3G peptide, primary screen, biochemical, TR-FRET, GST-Vif 1-94, biotin-A3G peptide, dose response retest (AID 1117319). one-dose inhibition, %; IC50 in µM for titrated hits. 260,000 compounds, 0.57% hits. TR-FRET GST-Vif / biotin-A3G peptide binding; higher % means a stronger effect; test concentration not given here; strong numbers were not always called active;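 active = above the screen mean plus three standard deviations and confirmed in dose response; inconclusive = results disagree or hit not tested in dose response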;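 note: Vif residues 1-94 fused to GST binding biotinylated APOBEC3G peptide 110-148; 0% = full assay without inhibitor and 100% = GST in place of GST-Vif; retest series ran down from 100 µM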
HNF4A DNA FP: change in binding of human HNF4 alpha to DNA; 360,000 compounds, 0.3% hits; P41235; HNF4a-FITC DNA binding, fluorescence polarization, 1 h; activity change, % at 10 µM; in the data active = activity change above about 30%, passing the limit was not always enough;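 note: controls were the assay level and a saturating level of protein; the project sought stronger binding though the title names inhibitors; some compounds called inactive have numbers as strong as hits; positive values seem to mean higher polarization but the record does not say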
Target sequence (P41235 whole entry, looked up): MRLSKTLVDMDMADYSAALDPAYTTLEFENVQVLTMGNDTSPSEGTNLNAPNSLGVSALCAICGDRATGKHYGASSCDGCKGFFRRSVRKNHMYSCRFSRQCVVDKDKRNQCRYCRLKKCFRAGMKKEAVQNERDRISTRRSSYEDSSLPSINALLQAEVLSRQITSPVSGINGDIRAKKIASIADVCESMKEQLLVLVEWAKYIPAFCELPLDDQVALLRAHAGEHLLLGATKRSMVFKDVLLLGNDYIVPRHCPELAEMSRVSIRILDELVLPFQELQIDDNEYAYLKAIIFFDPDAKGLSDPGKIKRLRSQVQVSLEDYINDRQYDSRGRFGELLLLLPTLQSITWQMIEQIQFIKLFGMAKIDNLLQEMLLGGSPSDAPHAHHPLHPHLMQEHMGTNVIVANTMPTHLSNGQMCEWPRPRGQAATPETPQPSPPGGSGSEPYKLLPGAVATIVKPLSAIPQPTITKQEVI
Ecoli rRNA inh: inhibitors of bacterial rRNA selective over humanized ribosomes; E. coli WT GFP vs humanized-ribosome RFP mutants, fluorescence, 24 h; hits give low values; DMSO median 0, no signal -100; AID 720706; 350,000 compounds, 1.6% hits; GFP signal change (wild-type ribosome), % (test concentration not listed);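 active = significant combined selectivity score with lowered wild-type GFP, culture density cut under 30%, mutant RFP and density less affected; inactive = any of these conditions unmet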; note: one replicate is shown; some compounds called inactive have numbers as strong as hits
MLL AF4-AF9 inh: MLL-AF4/AF9 protein interaction inhibition | P42568 | AlphaScreen, biotin-AF4 peptide binding to FLAG-AF9 | inhibition, % at 10 µM | 350,000 compounds, 0.47% hits | AID 651704;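 active = every replicate reaching a set inhibition limit, whatever the replicate mean, cut at about 25% in these data; inconclusive = mean inhibition reaches that limit but some replicates miss it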;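 note: 0% = plate neutral control median and 100% = total signal loss; the record names both 10 and 1 µM as test concentration; the first replicate is given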
ALR H2O2 inh: human ALR oxidase inhibition via reduced H2O2. P55789. purified ALR, DTT oxidation, H2O2 HRP-luminol luminescence. inhibition, % (no concentration beside the values). 290,000 compounds, 3.8% hits;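 active = mean and each replicate at 75% or more; inconclusive = only one of the two met; inactive = neither met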;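 note: stock transfer was 7.5 nL into about 7.5 µL; 0% = neutral wells and 100% = wells with inactivated enzyme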
Target sequence (P55789 whole entry, looked up): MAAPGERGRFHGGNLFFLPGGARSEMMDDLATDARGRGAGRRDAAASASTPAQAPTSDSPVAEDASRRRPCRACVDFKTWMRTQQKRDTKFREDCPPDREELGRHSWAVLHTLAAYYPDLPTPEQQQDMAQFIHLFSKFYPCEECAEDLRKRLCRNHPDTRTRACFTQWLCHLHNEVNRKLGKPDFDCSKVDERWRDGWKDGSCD
Ecoli growth: blocks Escherichia coli growth. OD600 absorbance (test concentration not listed). 330,000 compounds, 0.21% hits. OD600, 23 h; hits give low values;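 active = OD600 absorbance below the run mean of sample wells minus 3.6 SD, in any replicate, cut at about 0.56 in these data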;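 note: stock transfer was 300 nL into about 60 µL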
FGF22 binding: shifts melting point of recombinant human FGF22 | recombinant FGF22 thermal shift, SYPRO orange fluorescence; percent of sucrose octasulfate shift, DMSO zero | calls only at 9.99 µM | 340,000 compounds, 1.5% hits;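 active = melting point raised past a set limit in the mean and every replicate; inconclusive = no clear call; three in four hits are not shown here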
Target sequence (Q9HCT0 whole entry, looked up): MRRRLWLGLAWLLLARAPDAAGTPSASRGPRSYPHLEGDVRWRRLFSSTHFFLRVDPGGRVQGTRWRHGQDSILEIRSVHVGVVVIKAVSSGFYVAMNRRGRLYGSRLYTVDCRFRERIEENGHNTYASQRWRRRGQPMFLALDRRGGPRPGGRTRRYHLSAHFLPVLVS
Ecoli rRNA inh OD600: also measured in Ecoli rRNA inh; calls as there; OD600 change, %; measured here: OD600 growth;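 optical density of the mix in the first replicate; 0 = DMSO median and -100 = no signal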
Ecoli rRNA inh RFP: recorded beside Ecoli rRNA inh, whose call it bears; RFP signal change, %; measured here: RFP humanized mutant strains;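 first replicate; 0 = DMSO median and -100 = no signal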
* = called active by the depositor; i = inactive; ? = inconclusive; · = not tested or not shown. Some of the compounds tested, so the mix of outcomes need not match the whole.

SMILES	Vif A3G	HNF4A DNA FP	Ecoli rRNA inh	Ecoli rRNA inh OD600	Ecoli rRNA inh RFP	MLL AF4-AF9 inh	ALR H2O2 inh	Ecoli growth	FGF22 binding
C[C@@H]1CN([C@H](C)CO)C(=O)c2c(c3ccccc3n2C)-c2ccccc2CO[C@@H]1CN(C)S(C)(=O)=O	·	·	0	2	-3.1	-2.8	·	·	i
CSc1ccc(-c2sc(Nc3cccc4ccccc34)n[n+]2-c2ccccc2)cc1	·	-3.2	14	9	7.7	13	-48	0.69	i
CNc1ccc(-c2ccccc2OC)cn1	·	-3.3	16	32	1.0	1.3	·	·	i
C[C@@H]1CN([C@H](C)CO)S(=O)(=O)c2ccc(C#Cc3ccc(F)cc3)cc2O[C@@H]1CN(C)C	·	·	-2	1	4.0	9.3	·	·	i
Cn1cc(SCC(=O)NC2CCCCC2)c2ccccc21	-5%	-1.1	5	14	5.2	-1.4	39	0.7	i
O=C(OCCCOC(=O)c1ccccc1O)c1ccccc1O	·	·	-6	-18	-2.9	1.1	-2	·	i
O=C(C[C@@H]1C=C[C@@H](NS(=O)(=O)c2ccccc2)[C@@H](CO)O1)NCCN1CCCCC1	·	·	1	7	0.9	-1.0	·	·	i
CC(=O)c1cccc(NC(=O)C2Cc3c(-c4ccccc4Oc4ccccc4)ccnc3O2)c1 (centres undefined)	·	-0.1	-1	2	8.1	-1.0	·	·	i
C[C@@H]1CN([C@H](C)CO)C(=O)c2cc(NS(C)(=O)=O)ccc2O[C@@H](C)CCCCO[C@H]1CN(C)Cc1ccccc1	·	·	2	16	0.7	5.0	·	·	i
Cc1onc(-c2c(F)cccc2Cl)c1C(O)c1ccc(F)cc1 (centres undefined)	8%	-0.5	-10	0	-1.3	-3.3	1	0.68	i
COc1ccc(CNC(=O)CCn2nc(C)c3c(C)n(-c4ccccc4)nc3c2=O)c(OC)c1	·	-1.7	6	6	6.2	-8.3	0	0.65	i
COc1ccc(C(=O)NC(=S)NCc2ccccc2)cc1	9%	0.7	·	·	·	·	33	0.67	·
CCCCn1c(NCCC)nc2c1c(=O)[nH]c(=O)n2C	-1%	-0.8	·	·	·	·	·	0.72	·
COc1ccc(CC2(CO)CCN(S(=O)(=O)N(C)C)CC2)cc1	7%	-3.0	6	-2	-1.2	0.3	-3	0.65	i
COc1cc(NC(=S)NC(=O)c2ccco2)ccc1NC(=O)C(C)C	-2%	-1.8	-3	5	-2.1	-0.6	12	·	i
COCC#Cc1cnc2c(c1)C(=O)N([C@@H](C)CO)C[C@@H](C)[C@H](CN(C)C(=O)c1ccc3c(c1)OCO3)O2	·	·	4	-6	-3.9	-5.7	·	·	i
CC(=O)N1c2ccccc2NC(=O)C1(C)C	-3%	-2.1	·	·	·	·	-13	0.72	·
COC(=O)Cn1cc(S(=O)(=O)NCc2ccc(C)cc2)c2cc([N+](=O)[O-])ccc21	-3%	0.4	8	3	-0.9	-0.3	-26	0.65	i
COc1ccc(S(=O)(=O)N(C)C[C@@H]2Oc3ccc(NS(=O)(=O)c4ccc(Cl)cc4)cc3C(=O)N([C@@H](C)CO)C[C@@H]2C)cc1	·	·	-1	-3	4.9	-0.2	·	·	i
O=C(Nc1cccc2ncccc12)c1cc2ccccc2o1	26%	-1.1	·	·	·	·	0	0.67	·
CC1=C(C(=O)N2CCOCC2)CC(CC(=O)NCc2ccco2)C(=O)N1Cc1ccc(F)cc1 (centres undefined)	1%	-0.8	20	10	1.2	-0.8	·	·	i
O=C(Nc1ccc(S(=O)(=O)N2CCCC2)cc1)c1ccc(OCC2CCCO2)cc1 (centres undefined)	1%	-5.0	-20*	-2.7*	-4.7*	-1.5	-13	0.66	·
O=C(Nc1ccc(N2CCOCC2)cc1N1CCOCC1)c1ccc([N+](=O)[O-])cc1	5%	2.8	·	·	·	·	-62	0.76	·
C[C@@H]1CCCCO[C@@H](CN(C)C(=O)Nc2ccc(C(F)(F)F)cc2)[C@H](C)CN([C@H](C)CO)C(=O)c2cc(NC(=O)Nc3ccc(F)cc3)ccc2O1	·	·	0	0	-0.8	-0.7	·	·	i
O=C(O)Cc1ccc(O)c(F)c1	28%	1.1	-3	0	-0.6	4.3	·	·	i
O=C(Cc1ccccn1)N1[C@H](CO)[C@@H]2c3ccccc3NC[C@@H]21	·	·	1	10	-0.8	1.3	·	·	i
COc1ccc(S(=O)(=O)Nc2ccc3c(c2)C(=O)N([C@@H](C)CO)C[C@@H](C)[C@@H](CN(C)C(=O)Nc2ccccc2)O3)cc1	·	·	0	4	0.0	0.7	·	·	i
CCOC(=O)C1=C(C)NC2=C(C(=O)OC2)C1c1ccccc1 (centres undefined)	2%	2.4	-5	1	0.7	-9.8	3	0.7	i
C[C@@H]1CN([C@@H](C)CO)C(=O)Cc2cc(NC(=O)Cn3cnnn3)ccc2O[C@H]1CN(C)Cc1ccc(C(F)(F)F)cc1	·	·	-5	-21	1.1	3.2	·	·	i
CCc1ccc(C2N3CC4([N+](=O)[O-])CN2CC([N+](=O)[O-])(C3)C4(C)C)cc1 (centres undefined)	8%	-0.8	17	12	2.3	-2.2	0	0.68	i
O=Cc1c(NCCN2CCCC2)c2ccccc2[nH]c1=O	·	5.0	4	9	-1.1	-1.6	-3	0.62	i
O=C1Nc2ccccc2-n2nnnc2C1N1CCN(c2ccc(F)cc2)CC1 (centres undefined)	·	1.6	-8	0	6.0	1.2	·	·	i
COc1ccc(S(=O)(=O)Nc2cccc(N(C)S(C)(=O)=O)c2)cc1C	·	3.8	·	·	·	·	-5	0.68	·
Cc1ccccc1-n1nc(-c2cccnc2)cc1C(=O)NN	25%	1.4	1	3	-4.9	-0.1	·	0.71	i
CC(C)(C)c1nc2ccc([N+](=O)[O-])cc2[nH]1	-6%	1.9	3	1	-2.7	0.2	-1	0.67	i
C[C@@H]1CN([C@H](C)CO)C(=O)c2cccc(NC(=O)c3nc4ccccc4s3)c2O[C@H]1CN(C)CC1CCCCC1	·	·	-6	0	-4.4	7.8	·	·	i
CC(c1ccco1)N(C(=O)c1ccccc1NS(=O)(=O)c1cccc([N+](=O)[O-])c1)c1ccccn1 (centres undefined)	21%	1.1	·	·	·	·	0	·	·
CC(C)C1CC(CCN)(Cc2ccccc2)CCO1 (centres undefined)	0%	0.2	13	4	2.0	1.3	-2	0.72	i
COCCN(C(=O)c1csnn1)C(C(=O)NC(C)(C)C)c1cccc(OC)c1 (centres undefined)	0%	-2.0	·	·	·	·	-3	0.71	·
O=C(N/N=C/c1ccc([N+](=O)[O-])s1)c1ccccc1	6%	-1.8	12	1	22	-2.5	-53	·	i
Cc1ccc(S(=O)(=O)NC(C(=O)N2CCN(S(=O)(=O)c3cccc(F)c3)CC2)C(C)C)cc1 (centres undefined)	·	-0.1	8	5	-2.2	-4.4	·	0.67	i
COc1ccc(C(=O)Nc2ccc(Oc3nc(C)nc4sc(-c5ccccc5)cc34)cc2)cc1OC	5%	0.2	·	·	·	·	-9	0.64	·
Cc1c(OC(C)C(=O)N[C@H](C(=O)O)c2ccccc2)ccc2c3c(c(=O)oc12)CCCC3 (some centres undefined)	·	-0.3	·	·	·	-3.7	96*	0.74	i
COc1ccc(CN2CCC(=O)N([C@H](CO)Cc3ccccc3)CC2)cc1OC	·	-1.6	4	11	1.5	-15	·	·	i
CC(C)Nc1nc(NC(C)C)nc(N(C)C#N)n1	6%	5.2	·	·	·	·	1	0.66	·
Nc1nc2ccc(Cl)cc2cc1C(=O)NC1CC1	·	-1.9	20	13	1.4	-4.2	·	·	i
CC(=O)OCCc1c(C)nc2nc[nH]n2c1=O	?	4.0	·	·	·	·	-3	0.7	·
C[C@H](CO)N1C[C@H](C)[C@H](CN(C)C(=O)Nc2ccccc2)Oc2c(NS(C)(=O)=O)cccc2C1=O	·	·	4	-5	-2.8	-5.0	·	·	i
Cc1ccc(NCC(=O)N/N=C/c2ccc(-c3cccc(C(F)(F)F)c3)o2)cc1	-8%	2.5	·	·	·	·	11	·	·
Clc1ccc2c(c1)C(N1CCNCC1)Cc1ccccc1S2 (centres undefined)	6%	2.3	·	·	·	·	-3	0.55*	·
CS(=O)(=O)Nc1cccc(NC(=O)c2cccc3c(-c4cccc(C(N)=O)c4)coc23)c1	·	-0.5	-18	-19	2.8	-0.8	·	·	i
COc1ccc(-c2nnc(NC(=O)C3CCCN3S(=O)(=O)c3cccs3)o2)cc1 (centres undefined)	-6%	-5.9	-2	-4	-2.4	-1.3	·	0.7	i
O=C1CC(=O)Nc2cc(S(=O)(=O)Nc3cccc(C(F)(F)F)c3)ccc2N1	-1%	-2.2	3	8	-3.2	-1.6	0	0.71	i
CC1(C(=O)O)CCCN1C(=O)c1cc2ccccc2s1 (centres undefined)	·	-1.9	0	-2	-3.2	1.6	·	·	i
CCCCC(=O)Nc1ccc2c(c1)C(=O)NC2=O	2%	6.2	·	·	·	·	-5	0.7	·
Cc1ccc(COc2coc(CN3CCN(C(=O)c4ccco4)CC3)cc2=O)cc1	1%	6.0	5	-2	-0.2	1.4	·	0.7	i
COc1ccc2nc(NC(=O)CSc3nnc(C)n3N)sc2c1	?	4.7	10	3	-2.0	-48	3	0.68	i
CO[C@@H]1CN(C)C(=O)c2ccc(NC(=O)NC3CCCCC3)cc2OC[C@@H](C)N(CC2CC2)C[C@H]1C	·	·	2	-11	3.2	-6.8	·	·	i
CCS(=O)(=O)N1CC(=O)N2[C@@H](CO)[C@H](c3ccc(-c4cccc(F)c4)cc3)[C@@H]2C1	·	·	-1	-6	-3.0	-4.4	·	·	i
C=CCNC(=S)/N=c1/ccccn1C	-13%	-6.3	9	1	-1.1	-3.1	4	·	i

Whole records, quoted from the list. Order of screens: Vif A3G	HNF4A DNA FP	Ecoli rRNA inh	Ecoli rRNA inh OD600	Ecoli rRNA inh RFP	MLL AF4-AF9 inh	ALR H2O2 inh	Ecoli growth	FGF22 binding
Nc1nc2ccc(Cl)cc2cc1C(=O)NC1CC1 is listed with ·	-1.9	20	13	1.4	-4.2	·	·	i
CCCCC(=O)Nc1ccc2c(c1)C(=O)NC2=O is listed with 2%	6.2	·	·	·	·	-5	0.7	·
COc1ccc(C(=O)Nc2ccc(Oc3nc(C)nc4sc(-c5ccccc5)cc34)cc2)cc1OC is listed with 5%	0.2	·	·	·	·	-9	0.64	·
CC(C)Nc1nc(NC(C)C)nc(N(C)C#N)n1 is listed with 6%	5.2	·	·	·	·	1	0.66	·

Continued.
SMILES	Vif A3G	HNF4A DNA FP	Ecoli rRNA inh	Ecoli rRNA inh OD600	Ecoli rRNA inh RFP	MLL AF4-AF9 inh	ALR H2O2 inh	Ecoli growth	FGF22 binding
O=C(Nc1cccnc1)c1cc2c(s1)-c1ccccc1OC2	·	0.5	-3	-22	3.2	-1.8	0	0.67	i
C[C@H](CO)N1C[C@H](C)[C@@H](CN(C)Cc2ccc3c(c2)OCO3)Oc2ccc(NC(=O)NC3CCCCC3)cc2C1=O	·	·	2	6	-0.1	2.4	·	·	i
CN(C)c1nc(NCc2ccccc2)nc(SCC(N)=O)n1	-5%	-2.1	16	5	1.5	0.9	-6	0.66	i
C=CCNc1nc(-c2c(C)nc3ncccn23)cs1	·	0.0	18	12	20	-1.8	21	0.69	i
COc1cccc2cc(C(=O)NCCC3=CCCCC3)c(=O)oc12	-2%	3.0	-2	-1	0.4	1.2	-15	0.69	i
C/C(=N\Nc1cccc2cccnc12)c1ccc[nH]1	·	2.9	-18	15	-4.9	12	96*	·	i
